# Cruzain inh noDet: blocks cruzain activity in detergent-free assay. P25779. purified cruzain, Z-FR-AMC fluorescence, no detergent. Potency, µM, for the others: max response, negative = inhibition, actives largely listed as inhibitors. 2.3% of 200,000 active. AID 1476;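 further: plate controls were enzyme without inhibitor for no effect and buffer without enzyme for full effect; nearly all actives have a fitted effect of over 40% in size; top concentration of the series not given in the record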
# Target sequence (P25779 123-467 limits assumed): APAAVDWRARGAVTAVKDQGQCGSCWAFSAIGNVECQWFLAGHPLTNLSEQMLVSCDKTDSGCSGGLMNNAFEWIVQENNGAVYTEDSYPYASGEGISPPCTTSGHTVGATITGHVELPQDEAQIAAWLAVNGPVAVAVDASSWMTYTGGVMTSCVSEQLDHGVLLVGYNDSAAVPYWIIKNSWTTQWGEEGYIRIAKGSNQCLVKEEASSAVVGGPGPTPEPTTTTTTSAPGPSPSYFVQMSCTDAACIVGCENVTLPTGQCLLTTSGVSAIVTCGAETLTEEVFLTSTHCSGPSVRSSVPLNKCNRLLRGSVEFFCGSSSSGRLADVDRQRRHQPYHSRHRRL
#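 Purified cruzain at 1.5 nM, pre-incubated 15 min with compound at room temperature in 100 mM sodium acetate pH 5.5, 5 mM DTT, 0.00005% Triton X-100. Reaction started with 2 uM Z-FR-AMC; AMC fluorescence increase over 60 s gives rate.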
# NS1 function inh: blocks influenza NS1 protein function; S. cerevisiae slowed by influenza A NS1, growth recovery by OD600; Potency, µM (titrated, usually from 46.1 µM), without a hit: at the top dose activity, positive = more growth; 0.4% of 270,000 active; active means well fitted rising curve with a large enough effect; inconclusive means small, poorly fitted or top-dose-only effect; inactive means no such curve, though single readings can be large or run the other way; further: nearly all actives have a fitted effect of over 50% in size
#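 OD600 was taken as the measure of yeast growth restored by compound in an NS1-expressing S. cerevisiae strain. Cells had been washed out of glucose medium and diluted 1:100 into galactose -URA medium, pH 6.0.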
# 2A StopGo: FMDV 2A StopGo reporter, luciferase signal; human cells with a luciferase reporter of 2A StopGo recoding; control for the full effect not named in the record; 1.2% of 410,000 active; Potency, µM (doses to about 57.9 µM), for the others: top-dose signal change, negative = less light; active = well fitted falling curve with a large enough effect; inconclusive = small, poorly fitted or top-dose-only effect; inactive = no such curve, though single readings can be large or run the other way; tested in HEK293T cells; further: on the % scale 0 is the no-effect control and ±100 the full control effect; nearly all actives have a fitted effect of over 45% in size; luciferase light after 4 h
# Marburg entry inh: inhibitors of Marburg virus binding or cell entry; Marburg virus pseudotyped entry inhibition, cell reporter; control for the full effect not named in the record; about a third of the inactives were read at about 46 µM; Potency, µM (highest dose often 37.8 µM), inactives show at the top dose activity change, negative = inhibition, hits mostly inhibitors; 1.8% of 300,000 active; active = well fitted inhibition curve with a large enough effect; inconclusive = small, poorly fitted or top-dose-only effect, or effect the other way; inactive = flat fitted curve, though single readings scatter; tested in HEK293 cells; about a fifth of its hits are not listed in these tables; further: on the % scale 0 is the no-effect control and ±100 the full control effect; luciferase read-out
# LASV entry inh: Lassa virus entry inhibition | Lassa virus pseudotype entry inhibition, cell reporter; control for the full effect not named in the record | Potency, µM (highest dose often 37.9 µM), without a hit: top-dose activity change, negative = inhibition, most hits filed as inhibitors | 1.2% of 300,000 active | AID 540256; active means well fitted inhibition curve with a large enough effect; inconclusive means small, poorly fitted or top-dose-only effect, or effect the other way; inactive means flat fitted curve, though single readings scatter; tested in HEK293 cells; further: on the % scale 0 is the no-effect control and ±100 the full control effect; nearly all actives have a fitted effect of over 50% in size; luciferase read-out
# Cruzain Triton: inhibitors of Trypanosoma cruzi cruzain with detergent; purified cruzain, Z-FR-AMC fluorescence, 0.01% Triton; Potency, µM, for the others: max response, negative = inhibition, usual class: inhibitors; 0.43% of 200,000 active; AID 1478;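 further: plate controls were neutral wells for no effect and buffer without enzyme for full effect; nearly all actives have a fitted effect of over 40% in size; top concentration of the series not given in the record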
#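 Compounds were screened in titration against cruzain (1.5 nM) with 0.01% Triton X-100 to counter colloidal aggregation. Activity was the AMC fluorescence increase over 60 s after adding 2 uM Z-FR-AMC at pH 5.5.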
# SARS PLpro yeast: inhibitors of SARS-CoV papain-like protease in yeast; 0.19% of 330,000 active; Potency, µM (highest dose often 32.9 µM), inactives show at the top dose activity, positive = growth rescue; S. cerevisiae expressing SARS-CoV PLpro, growth rescue; control for the full effect not named in the record; active means well fitted rising curve with a large enough effect; inconclusive means small, poorly fitted or top-dose-only effect; inactive means no such curve, though single readings can be large or run the other way; further: 0% is about no effect; nearly all actives have a fitted effect of over 55% in size; growth read by luminescence after 48 h
# RE007 growth inh: less growth of the S. pombe RE007 Vpr strain; S. pombe RE007 Vpr strain, BacTiter-Glo ATP luminescence, 24 h; control for the full effect not named in the record; Potency, µM (doses to about 92.2 µM), for the others: top-dose activity change, negative = less growth; 0.21% of 360,000 active; AID 651644; active = well fitted falling curve with a large enough effect; inconclusive = small, poorly fitted or top-dose-only effect; inactive = no such curve, though single readings can be large or run the other way;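 further: on the % scale 0 is the no-effect control and ±100 the full control effect; nearly all actives have a fitted effect of over 50% in size; the assay follows cell death caused by Vpr and the record does not say whether a fall means rescue or toxicity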
#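 Fission yeast strain RE007, carrying one chromosomally integrated HIV-1 vpr copy, was seeded at OD 0.01 in PMG+AL medium with 23 nL pinned compound. After 24 h at 30 °C and 99% humidity, viability was read by BacTiter-Glo luminescence.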
# * marks the source's active call; other numbers are inactive results; ? = inconclusive; . = no result given; & = joins results of further samples; [ ] = another dose, or the depositor's remark. Unless noted, the call rests on the fitted dose curve; in most records, active means well fitted curve in the direction sought with a large enough effect; inconclusive means small, poorly fitted or top-dose-only effect, or another doubt; inactive means no such curve, though single readings can be large; an effect the other way counts as inactive or inconclusive. Potency means the concentration at half of the fitted maximal effect.
SMILES,Cruzain inh noDet,NS1 function inh,2A StopGo,Marburg entry inh,LASV entry inh,Cruzain Triton,SARS PLpro yeast,RE007 growth inh
CC(=O)Nc1ccc(N2C(C(C)=O)=NN(c3ccc(Cl)cc3)C2c2sccc2C)cc1 (stereo not given),?,-10%,?,21µM*,?,-5.8%,-7%,-9%
Cc1ccc(S(=O)(=O)c2c[nH]c3ccc(Cl)cc3c2=O)cc1,.,4%,21%,0%[46.1 µM],-5%,.,-2%,11%
CCOc1cc(/C=N\NC(=O)c2c(C)nc3ccccn23)ccc1O,.,4%,-13%,7%,25%,.,-2%,3%
O=C1OC2(CCCCC2)OC(=O)C1=CNc1nc2ccccc2s1,3%,-1%,25%,?,19%,-3.2%,4%,-1%
CC(=O)Nc1ccc(NS(=O)(=O)c2cc(C)sc2C)cc1,-2%,5%,39%[activator],7%,9%,6.2%,-6%,2%
CCCCc1c(O)c2ccccc2[nH]c1=O,-7%,-3%,-13%,-12%,4%,0.7%,8%,-3%
CC(=O)c1ccc(OCc2cc(C(=O)N3CCCCCCC3)no2)cc1,.,-49%,0%,?,-26%,.,-3%,13%
Cc1ccc(O)c(-c2cc3ccccc3[nH]2)c1,-8%,-31%,24%,4%,6%,-10%,-29%,35µM*
Cc1cccc(-c2nc3ccccc3c3nncn23)c1,4%,-4%,-13%,-2%,-15%,3.4%,3%,6%
CCOC(=O)CNC(=O)Cn1cnc2sc(C)c(S(=O)(=O)N3CCC(C)CC3)c2c1=O,-17%,4%,3%,0%&0%,0%,2.5%,?,6%
Cn1c(/C(C#N)=N/O)nc2ccccc21,-2%,11%,0%,19%,0%,-5.8%,-28%,6%
O=C(CSc1nnnn1Cc1ccccc1)N1CCN(c2ccccc2)CC1,-4%,4%,-9%,?,-11%,6.8%,8%,33%
COc1ccc(S(=O)(=O)n2oc(=O)cc2-c2ccccc2)cc1,16%,2%,41%[activator],12%,7%,-1.2%,-2%,-18%
C=CCc1cc(C=O)cc(OCC)c1OCc1ccc(Cl)cc1,2%,-11%,-18%,-11%,-10%,-7.8%,-11%,.
CC(C)COc1ccc(C(=O)Nc2ccc(NC(=O)c3ccco3)cc2)cc1,.,6%,-13%,?,2%[46.1 µM],.,-4%,-12%

# Six entries from above, arranged by length of the SMILES, low to high.
SMILES,Cruzain inh noDet,NS1 function inh,2A StopGo,Marburg entry inh,LASV entry inh,Cruzain Triton,SARS PLpro yeast,RE007 growth inh
CCCCc1c(O)c2ccccc2[nH]c1=O,-7%,-3%,-13%,-12%,4%,0.7%,8%,-3%
Cc1cccc(-c2nc3ccccc3c3nncn23)c1,4%,-4%,-13%,-2%,-15%,3.4%,3%,6%
O=C1OC2(CCCCC2)OC(=O)C1=CNc1nc2ccccc2s1,3%,-1%,25%,?,19%,-3.2%,4%,-1%
CCOc1cc(/C=N\NC(=O)c2c(C)nc3ccccn23)ccc1O,.,4%,-13%,7%,25%,.,-2%,3%
CC(=O)c1ccc(OCc2cc(C(=O)N3CCCCCCC3)no2)cc1,.,-49%,0%,?,-26%,.,-3%,13%
CC(=O)Nc1ccc(N2C(C(C)=O)=NN(c3ccc(Cl)cc3)C2c2sccc2C)cc1 (stereo not given),?,-10%,?,21µM*,?,-5.8%,-7%,-9%

# (listing goes on)
SMILES,Cruzain inh noDet,NS1 function inh,2A StopGo,Marburg entry inh,LASV entry inh,Cruzain Triton,SARS PLpro yeast,RE007 growth inh
CC(=O)N1N=C(c2ccccc2)CC1c1ccc2c(c1)OCO2 (stereo not given),.,1%,8%,.,.,.,-23%,15%
Cc1cc(C)cc(NC(=O)Cn2ncn3c(cc4ccccc43)c2=O)c1,?,-4%,.,-16%,0%,1.9%,-12%,-1%
CCn1cc(C(=O)NCCN(CC(C)C)CC(C)C)c(=O)c2cc(S(=O)(=O)N(C)C3CCCCC3)ccc21,-2%,.,-1%,6%[46.1 µM],23%[46.1 µM],-1.5%,.,.
C/C(=C\c1ccc(Br)cc1)C(=O)c1c(C)cc(C)[nH]c1=O,.,10%,-14%,.,.,.,4%,4%
Cc1ccn2c(NC(=O)c3cccs3)c(-c3ccccc3)nc2c1,0%,2%,9%,-2%,13%,-4.5%,-5%,-10%
Cc1ccccc1OCC(=O)Nc1ccccc1-c1ccccc1,-15%,7%,0%,0%,.,-1.1%,-1%,-14%
Nc1cc(=O)nc(SCC(=O)Nc2cccc3ccccc23)n1CCc1ccccc1,-28%,27%,-9%,-11%,-3%,-4.9%,1%,1%
COc1ccc(Nc2cc(C)nc3ncnn23)c(OC)c1,-6%,?,5%,0%,.,-4.4%,-8%,14%
Cc1ccc(NC(=O)c2noc3c2CCc2ccccc2-3)cc1,-11%,-6%,57%[activator],-28%[46.1 µM],?,-5.6%,9%,-15%
CC(C)(CO)NC12CC3CC(CC(C3)C1)C2,.,.,-6%,-4%&-4%[46.1 µM],?,.,1%,15%
CNC(=O)c1cccc2nc3ccccc3nc12,.,-10%,-9%,20%[46.1 µM],-12%[46.1 µM],.,0%,13%
Cn1ccnc1Sc1nc(Nc2cccc(Cl)c2)nc(N2CCOCC2)n1,-1%,-117%,-20%,0%,6%,-6.4%,1%,-22%[3.69 µM]
O=c1cnc2ccccc2n1Cc1ccc(Br)cc1,.,0%,11%,4%[46.1 µM],18%,.,-17%,72%
CCCCC12CNCC(C)(CNC1)C2=O,-10%,15%,7%,-1%,22%,3.7%,-6%,8%
COC(=O)c1n[nH]nc1-c1ccccc1,2%,-9%,-6%,-2%,4%,-0.3%,-4%,-8%
NS(=O)(=O)c1ccc(CCNCc2cc(Cl)ccc2OCc2ccccc2)cc1,.,18%,?,?,-21%[46.1 µM],.,1%,-14%
COc1ccccc1CNc1ccc(-c2nc(-c3ccco3)no2)cc1[N+](=O)[O-],?,.,14%,?,?,-4.0%,.,.
COc1cc(OC)c(NC(=S)Nc2cccc(C(C)=O)c2)cc1Cl,?,10%,4%,-13%,9%,-0.1%,2%,3%
O=C(CCS(=O)(=O)Cc1ccccc1)NCCc1ccccc1,.,.,4%,-1%,-3%,.,2%,1%
CCc1nc(SCC(=O)OC)c2c3c(sc2n1)COC(C)(C)C3,.,-6%,-1%,.,.,.,-4%,-7%
CC(=O)c1cccc(CN2CCN(CCC(C)C)C(CCO)C2)c1 (stereo not given),.,1%,-16%,12%[46.1 µM],21%,.,0%,-2%
Cc1ccc(S(=O)(=O)N2CCCN(S(=O)(=O)c3ccccc3Br)CC2)cc1,.,.,-5%,.,?,.,-3%,-20%
CCOC(=O)CSCC(=O)Nc1nnc(-c2cccc([N+](=O)[O-])c2)s1,-3%,8%,-13%,3%,-5%,-0.9%,3%,-3%
Cc1cccc(NC(=O)C2CCCN(c3ncnc4c3nc3n4CCCCC3)C2)n1 (stereo not given),.,-40%,?,.,.,.,3%,12%
COc1ccc(NC(=O)CSc2nnc(-c3ccncc3)n2CC2CCCO2)c(OC)c1 (stereo not given),-15%,1%,9%,24%&24%,8%,4.4%,1%,1%
COc1ccc(CCNC(=O)CCC(=O)NC2CCCC(C)C2C)cc1OC (stereo not given),.,13%,-14%,10%[46.1 µM],-6%[46.1 µM],.,10%,5%
CCOC(=O)/C(C#N)=N/Nc1ccccc1C#N,.,-4%,-11%,.,.,.,-2%,-9%
Cc1ccc2[nH]c(C(=O)NCCN3CCCC3)cc2c1,.,?,-4%,?,-5%[46.1 µM],.,-2%,0%
Cc1ccc(Cl)cc1NC(=O)N1CCC2(CC1)Oc1ccccc1C(=O)N2Cc1ccccc1F,-2%,.,-24%,-2%[46.1 µM],.,-3.2%,.,.
C=CCNC(=O)c1ccc(N(Cc2ccc(Cl)cc2)S(C)(=O)=O)cc1,.,5%,-9%,.,.,.,0%,23%
COc1ccc(OC)c(NC(=O)c2ccc(CN3CCOCC3)cc2)c1,3%,-13%,-4%,4%,7%,1.6%,-10%,-12%
COCCOc1ccc(C(F)(F)F)cc1NC(=O)c1ccccc1,2%,-7%,8%,17%,?,-2.7%,-5%,-9%
COc1ccc(S(=O)(=O)NC(C)C(=O)NC2CC2)cc1C (stereo not given),.,7%,-16%,.,.,.,1%,-10%
c1ccc2c3nnc4n(c-3nc2c1)CCCS4,3%,-1%,0%,20%,9%,-0.7%,-1%,4%
CCc1ccccc1NC(=O)c1cn(C)c(=O)c2ccccc12,-13%,.,-17%,?,14%[46.1 µM],-2.6%,.,.
Cc1cc(C)n2nc(C(=O)OCC(=O)Nc3ccc4c(c3)OCO4)nc2n1,-10%,-1%,3%,-2%,?,4.4%,1%,-8%
CCc1ccccc1NC(=O)CN(C)C(=O)CSc1nn(-c2ccccc2)c(=S)s1,15%,2%,-6%,-15%,11%,-8.1%,?,.
CN(N)c1nc(C(F)(F)F)nc2ccccc12,.,4%,-18%,14%,3%[46.1 µM],.,0%,2%
CCc1ccc(C2NC(=O)c3ccccc3O2)cc1 (stereo not given),.,-9%,42%[activator],?,24%,.,0%,14%
O=C(Cn1ncc2c3ccccc3n(Cc3ccc(Cl)cc3)c2c1=O)NCCC1=CCCCC1,-5%,.,2%,18%[46.1 µM],-3%[46.1 µM],-4.1%,.,.
COc1cccc2c(=O)n(CC(=O)Nc3ccccc3F)ccc12,-15%,26%,?,.,.,-2.6%,5%,-8%
O=C(Nc1nccs1)C1CCCN1S(=O)(=O)c1ccc(F)cc1 (stereo not given),-5%,-1%,-9%,1%,2%,7.2%,7%,5%
CC1CN(S(=O)(=O)c2cccc(C(=O)NCCc3ccc(S(N)(=O)=O)cc3)c2)CC(C)O1 (stereo not given),.,.,-21%,-21%[46.1 µM],-10%[46.1 µM],.,-1%,1%
CCNc1nc(NCC)nc(Oc2ccc(C(=O)OC)cc2)n1,.,-4%,-9%,.,.,.,-1%,0%
